Mtb MbtI inh: MbtI salicylate synthase inhibition | P9WFX0 | purified MbtI enzyme, fluorescence intensity read-out | inhibition, %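 (about 17 µg/mL by stock and volumes)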 | 100,000 tested, 0.89% active | AID 493033;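 active = above 50% in both replicates, above 80% if mildly self-fluorescent; inactive = the rest, strongly fluorescent compounds included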;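 note: 0% = mean of negative and 100% = mean of positive controls; one replicate is shown; some compounds called inactive have numbers as strong as hits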
Target sequence (P9WFX0 whole entry, looked up): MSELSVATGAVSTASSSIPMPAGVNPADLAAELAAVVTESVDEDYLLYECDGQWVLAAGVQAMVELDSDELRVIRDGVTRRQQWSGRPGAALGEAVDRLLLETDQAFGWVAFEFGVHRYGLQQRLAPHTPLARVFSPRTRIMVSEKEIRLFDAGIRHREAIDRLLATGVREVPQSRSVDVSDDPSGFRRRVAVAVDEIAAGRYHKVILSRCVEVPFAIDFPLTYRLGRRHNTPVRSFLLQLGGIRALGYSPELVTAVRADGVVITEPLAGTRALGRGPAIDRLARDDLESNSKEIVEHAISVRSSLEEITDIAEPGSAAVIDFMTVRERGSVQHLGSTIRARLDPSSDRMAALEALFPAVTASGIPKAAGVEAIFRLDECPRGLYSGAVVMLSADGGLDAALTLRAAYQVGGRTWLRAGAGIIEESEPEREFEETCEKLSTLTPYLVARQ
Mtb MenB inh: blocks the Mycobacterium tuberculosis MenB enzyme | P9WNP5 | MenB enzyme assay, absorbance read-out; some hits fall short of the stated cut | inhibition, %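 (about 12 µg/mL by stock and volumes)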 | 100,000 tested, 0.43% active | AID 540299;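 active = mean of two replicates above 30%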;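 note: 0% = no compound and 100% = wells with inactive enzyme; the first replicate is given; strong numbers were not always called active; inactives centre near -10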
Target sequence (P9WNP5 whole entry, looked up): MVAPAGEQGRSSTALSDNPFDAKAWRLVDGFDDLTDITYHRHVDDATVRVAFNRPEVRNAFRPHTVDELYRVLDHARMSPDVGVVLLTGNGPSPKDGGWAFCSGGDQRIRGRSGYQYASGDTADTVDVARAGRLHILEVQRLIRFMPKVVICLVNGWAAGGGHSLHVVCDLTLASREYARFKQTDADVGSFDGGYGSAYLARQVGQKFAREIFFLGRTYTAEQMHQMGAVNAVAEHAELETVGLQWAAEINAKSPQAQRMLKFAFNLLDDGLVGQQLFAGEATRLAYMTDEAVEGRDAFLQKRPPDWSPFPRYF
PV pol inh: inhibitors of poliovirus RNA polymerase binding and polymerization; poliovirus polymerase elongation, fluorescence polarization; stronger effect = lower value; % elongation, % (compound at 16.7 µg/mL); 150,000 tested, 0.66% active; AID 588519; in the data active = % elongation below about 90%; note: some results filed as inactive read as strong as hits
PV pol inh intensity: further read-out of PV pol inh, marked with its call; % elongation; measured here: total intensity read-out; formula for this scale not given here;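 total fluorescence in place of polarization; lower means less elongation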
An asterisk follows results filed as active; . = no result given.

Sample of the layout, three compounds:
SMILES	Mtb MbtI inh	Mtb MenB inh	PV pol inh	PV pol inh intensity
CCN(CC1COc2ccccc2O1)C(=O)Cc1coc2cc3c(cc12)CCC3 (configuration not stated)	-4	-25	104	108
Cc1cccc(-n2nc(C)c(C(=O)N3CCCCC3)c2-n2cccc2)c1	-8	-1	100	101
COCC(=O)Oc1c(C)cc(Br)cc1C	4	4	97	100

Results, repeating the preview:
SMILES	Mtb MbtI inh	Mtb MenB inh	PV pol inh	PV pol inh intensity
CCN(CC1COc2ccccc2O1)C(=O)Cc1coc2cc3c(cc12)CCC3 (configuration not stated)	-4	-25	104	108
Cc1cccc(-n2nc(C)c(C(=O)N3CCCCC3)c2-n2cccc2)c1	-8	-1	100	101
COCC(=O)Oc1c(C)cc(Br)cc1C	4	4	97	100
CCOc1nc2cccc(C(=O)OC(C)OC(=O)OC3CCCCC3)c2n1Cc1ccc(-c2ccccc2-c2nn[nH]n2)cc1 (configuration not stated)	-67	0	98	102
O=S(=O)(N=P(C1CCCCC1)(N1CCOCC1)N1CCOCC1)c1ccccc1	8	8	100	104
N#Cc1ccc(-c2ccc(F)cc2)n(CC(=O)N2CCC(C(N)=O)CC2)c1=O	78	10	102	101
CCCCOC(=O)Nc1[nH]c(C)c(C(=O)OCC)c1C	-8	-6	106	103
O=C1c2oc3ccccc3c(=O)c2C(c2ccccc2)N1c1nccs1 (configuration not stated)	5	-5	101	100
O=C(NCC1OCCc2ccccc21)c1ccc(Br)cc1 (configuration not stated)	-4	-23	104	102
CC1CCc2c(sc(NC(=O)c3cc4nc(-c5ccccc5)cc(C(F)(F)F)n4n3)c2C#N)C1 (configuration not stated)	.	-13	106	112
CC(C)C(=O)Nc1cccc(Cl)c1	.	-13	107	106
Cc1nnc(SCC(=O)N2CCOCC2)n1/N=C/c1ccc(Cl)cc1	3	-1	105	101
COc1ccccc1-n1ccnc1SCC(N)=O	4	1	98	106
COc1cc2c(cc1OC)C(c1ccccc1C(=O)O)=NCC2	5	5	99	105
CSc1nsc(NC(=O)Nc2ccccc2C(F)(F)F)n1	1	3	102	102
O=C(O)/C=C1\NC(=O)c2ccccc21	20	-46	97	98
CCOc1ncccc1C(=O)N1CCN(C(c2ccccc2)c2ccccc2)CC1	-10	-20	106	109
CCCCC(CC)CN1CNC(=S)NC1 (configuration not stated)	27	2	99	103
CC(=O)N(Cc1cc2cc(C)ccc2nc1Cl)C1CCCC1	8	-61	104	101
CC(C)(c1ccc(O)c(Cl)c1)c1ccc(O)c(Cl)c1	-5	.	101	101
O=C1CCCC2=C1C(c1cccnc1)Nc1ccc3ccccc3c12 (configuration not stated)	.	-22	102	101
Cc1ccc(CNC(=O)c2cccn3c(=O)c4ccc(Cl)cc4nc23)o1	5	-5	102	102
C=CCN(CC=C)CC(O)Cn1c2c(c3cc(C)ccc31)CCCC2 (configuration not stated)	11	-26	101	97
COc1ccc(C(=O)c2ccccc2)cc1CN1CCOCC1	4	-18	102	106
COCCNC(=O)C1CCC(Cn2c(=S)[nH]c3ccccc3c2=O)CC1 (configuration not stated)	1	-23	103	104
The list continues:
SMILES	Mtb MbtI inh	Mtb MenB inh	PV pol inh	PV pol inh intensity
O=C(OCC(=O)N1CCN(c2ccccc2)CC1)c1ccccn1	1	-7	100	103
CCS(=O)(=O)N1Cc2ccccc2CC1C(=O)N1CCc2ccccc21 (configuration not stated)	-25	-22	103	108
COc1ccc(CNC(=S)NC(C)C)cc1OC	-1	-12	99	107
Cn1c(=O)cc(SCC(=O)N2CCCC2)c2ccc(Cl)cc21	-1	-16	102	102
COc1ccc(N2C(=O)/C(=C\c3ccco3)N=C2SCC(=O)/C(C#N)=C(\C)N)cc1Cl	0	-128	103	206
CC1(C)CC(=O)C(C=Nc2cccc(NC3=C(C#N)C(=O)CC(C)(C)C3)c2)=C(O)C1	6	-13	100	98
Cc1ccc(NC2=C/C(=N/S(=O)(=O)c3ccc(F)cc3)c3ccccc3C2=O)cc1C	-8	-21	.	.
CC(C)CCNC(=O)C1CCC(=O)N1CCc1ccccc1 (configuration not stated)	10	-10	103	105
O=C(/C(=C(\O)c1ccccc1)c1ncc[nH]1)c1ccccc1	0	-28	103	107
O=C(Nc1ccc(Br)cc1)c1noc2c1CCc1ccccc1-2	7	-9	102	104
CN1CCc2[nH]c(=S)c(C#N)c(-c3cccs3)c2C1	7	-38	102	128
CCCCN(C)S(=O)(=O)c1ccc(C(=O)Nc2nc3ccc4ccccc4c3s2)cc1	-6	-27	101	97
CC(OC(=O)Cn1cnc2c1c(=O)n(C)c(=O)n2C)C(N)=O (configuration not stated)	3	-17	101	105
C=CCC1C=CCC(CC=C)N1C(=O)CCC(=O)O (configuration not stated)	-8	-50	106	101
CC1CCCC(C2(O)C(=O)Nc3ccccc32)C1=O (configuration not stated)	7	-14	102	105
COC(=O)c1ccc2[nH]c(C)cc(=O)c2c1	109	2	104	104
O=CNC(C(=O)Nc1cccc(Cl)c1)c1ccccc1Cl (configuration not stated)	.	-11	107	105
O=C1CN(c2ccccc2)C=NN1	.	0	104	103
O=C1C(=Nc2ccccc2)c2ccccc2N1CN1CCN(c2ccccc2)CC1	.	-5	105	111
CCOc1cc(C(C2C(=O)CC(C)(C)CC2=O)C2C(=O)CC(C)(C)CC2=O)ccc1OCc1c(C)no[n+]1[O-]	26	-7	97	96
CCc1cccc(NC(=O)CN(C)Cc2ccccc2OC)c1	-17	-13	103	104
CC1=CCC2C(=O)N(CCCC(=O)O)C(=O)C2C1 (configuration not stated)	-10	-15	103	104
CC1CCC(C#N)(N(C)C(=O)CN2CC=C(c3ccccc3)CC2)CC1 (configuration not stated)	-7	-21	101	100
Cn1c(O)c(/C=N/c2sc3c(c2C#N)CCCC3)c2ccccc21	-3	.	99	103
O=c1c2ccccc2[nH]c(=S)n1/N=C/c1ccccc1	-8	-12	.	.
Next records follow:
SMILES	Mtb MbtI inh	Mtb MenB inh	PV pol inh	PV pol inh intensity
O=C(O)c1ccc(CN2CCCCC2)cc1	-4	-8	102	101
O=C(CSc1ccccn1)N1CCc2ccccc21	-2	18	100	101
C=CCn1c(SCC(=O)N2CCNC2=O)nc2scc(C3CC3)c2c1=O	13	-26	93	97
CCOc1ccc(O)c(C(=O)C(F)(F)F)c1	-7	-12	103	108
CC(C)CN(CC(C)C)S(=O)(=O)c1cccc2cccnc12	12	-20	100	95
CCOC(=O)c1ccc2c(c1)nc(C1CCN(S(=O)(=O)c3cccs3)CC1)n2CC	-2	-25	108	109
O=C(CSc1ncccn1)Nc1ccc2c(c1)CCC2	-2	-5	102	100
CCC(Sc1nncn2c1cc1occc12)C(=O)Nc1ccccc1OC (configuration not stated)	14	-32	102	102
CN(C1CCCC1)C1CCN(C(=O)CNC(=O)/C=C/c2ccccc2)CC1	-5	-15	102	106
O=C(COC(=O)c1cccnc1)NC(c1ccccc1)c1ccccc1	-8	.	100	102
CC(C)NP(=O)(c1ccccc1)C(C)(C)C (configuration not stated)	14	-9	98	99
CC(=O)NCN1CCN(CNC(C)=O)CC1	-7	0	107	105
CC(C)NC(=O)CCn1c(=S)[nH]c2cc3c(cc2c1=O)OCO3	9	14	98	101
CC(Sc1nnc(-c2cccnc2)n1N)C(=O)Nc1ccc2c(c1)OCCO2 (configuration not stated)	9	-8	101	103
Cc1ccc(S(=O)(=O)N2CCN(C(=O)OC(C)C)CC2)cc1	-1	-25	103	95
CCN(CC)CCNc1nc2c(c(=O)[nH]c(=O)n2C)n1Cc1ccccc1Cl	-2	8	100	101
COCCn1c(Cc2ccccc2)nnc1SCC(=O)c1ccc2c(c1)CC(=O)N2	-3	-30	107	128
COc1ccc(CNCC(=O)N2CCN(C(=O)CNCc3ccc(OC)cc3)CC2)cc1	-8	-42	105	104
CCCCC(=O)Nc1cccc(C(=O)N/N=C/c2ccco2)c1	22	-4	101	101
C#CCn1c(-c2ccccc2)nc2ccccc21	88	-9	102	102
CN(C)C(=O)c1ccc(NCc2cc(=O)oc3cc(O)ccc23)cc1	15	-5	.	.
CCOC(=O)CN1C(=O)C2(C(C#N)=C(N)Oc3n[nH]c(C)c32)c2ccccc21 (configuration not stated)	-14	0	102	107
Cc1cc(C=C(C(=O)O)C(=O)O)c(C)n1Cc1ccco1	-2	-22	107	107
Cc1cc(=O)[nH]c(SCC(=O)N2CCC(Cc3ccccc3)CC2)c1C#N	0	-9	103	112
CN(C1CCCCC1)S(=O)(=O)c1ccc(F)c(F)c1	-10	.	104	104

Record cards, from the list above.
Listed for CN(C1CCCCC1)S(=O)(=O)c1ccc(F)c(F)c1 → Mtb MbtI inh = -10; Mtb MenB inh = .; PV pol inh = 104; PV pol inh intensity = 104
Listed for C#CCn1c(-c2ccccc2)nc2ccccc21 → Mtb MbtI inh = 88; Mtb MenB inh = -9; PV pol inh = 102; PV pol inh intensity = 102
Listed for CCOc1ccc(O)c(C(=O)C(F)(F)F)c1 → Mtb MbtI inh = -7; Mtb MenB inh = -12; PV pol inh = 103; PV pol inh intensity = 108

Next compounds follow.
SMILES	Mtb MbtI inh	Mtb MenB inh	PV pol inh	PV pol inh intensity
S=C1NC2CCCCC2N1 (configuration not stated)	3	-19	104	95
N#C/C(=C\C=C\c1ccco1)c1nc2c(s1)CCCC2	15	-141	109	122
Cc1ccc(Cn2nc(C)c(C(=O)N3CCC(n4c(=O)[nH]c5ccccc54)CC3)c2Cl)cc1	-1	-24	98	104
O=C(O)CSc1nnc(-c2ccccc2)n1-c1ccccc1	1	-32	.	.
COc1ccc(OCC(=O)Nc2ccc3c(c2)OCO3)cc1	-1	-43	102	102
COc1ccc(-c2nn(-c3ccccc3)cc2C(=O)OCC(C)C)cc1	-8	-29	103	106
O=C(N/C=C/c1cccs1)NCc1ccc(C(F)(F)F)cc1	-1	-12	106	105
O=S(=O)(c1ccc(F)cc1F)N1c2cccc3cccc(c23)S1(=O)=O	-9	-12	101	103
NC(=S)N/N=C/c1ccc(Sc2cccc3cccnc23)o1	17	-22	105	100
Cc1ccccc1C(=O)Nc1ccc(NC(=O)c2ccc(C(C)(C)C)cc2)cc1	3	-23	104	105
Cc1cc(C)n(CC(=O)NC2CCCCC2C)c(=O)c1C#N (configuration not stated)	-19	-22	104	102
Cc1c(C(=O)NCCCN2CCCCC2)sc2nc3n(c(=O)c12)CCCC3	2	3	100	103
O=C(O)CC1S/C(=N/N=C/C=C/c2ccccc2)NC1=O (configuration not stated)	21	-27	102	102
CC(C)(CNC(=O)c1ccccc1OCCOc1ccccc1)N1CCOCC1	-4	-3	110	110
COc1ccc2nc(N3CCCC3=O)sc2c1	-9	.	103	106
N#Cc1cnc(SCc2cc(=O)n3ccccc3n2)nc1N	-5	-4	103	110
Clc1ccc(Oc2cnccn2)c2ccccc12	-2	-6	102	108
C=CCN1C(=O)CN=C(c2cccs2)c2c1sc1c2CCC1	-4	-5	103	102
Oc1ccc2ccccc2c1C=NN1CCN(Cc2ccccc2)CC1	8	-7	99	96
Cc1cnc(=O)[nH]c1SCc1ccc(C(F)(F)F)cc1	5	-12	105	105
CC(=O)NCc1ccc(C(=O)COC(=O)/C=C/c2ccc(C)o2)o1	2	-8	100	97
CCC(=O)Nc1ccccc1C(=O)N(C)C	-6	-2	102	101
CCOC(=O)C1CCN(C(=O)COC(=O)c2cccnc2Nc2ccccc2F)CC1	0	-37	104	109
COc1ccc(CCNC(=O)CSCc2n[nH]c(=O)[nH]2)cc1OC	-6	-11	102	101
Cc1ccc(N(Cc2ccco2)S(=O)c2ccc3ccccc3c2)cc1 (configuration not stated)	9	7	103	101

Fetched by compound from the entries so far, five records:
SMILES	Mtb MbtI inh	Mtb MenB inh	PV pol inh	PV pol inh intensity
CN(C)C(=O)c1ccc(NCc2cc(=O)oc3cc(O)ccc23)cc1	15	-5	.	.
CCCCC(=O)Nc1cccc(C(=O)N/N=C/c2ccco2)c1	22	-4	101	101
O=C(N/C=C/c1cccs1)NCc1ccc(C(F)(F)F)cc1	-1	-12	106	105
Cc1ccc(Cn2nc(C)c(C(=O)N3CCC(n4c(=O)[nH]c5ccccc54)CC3)c2Cl)cc1	-1	-24	98	104
O=C(CSc1ccccn1)N1CCc2ccccc21	-2	18	100	101

The listing continues:
SMILES	Mtb MbtI inh	Mtb MenB inh	PV pol inh	PV pol inh intensity
CC(=O)Nc1ccc(S(=O)(=O)N2CCN(Cc3ccccc3Cl)CC2)cc1	-3	5	101	102
O=C(NCCC(c1ccccc1)c1ccccc1)c1cccs1	.	-9	96	98
COc1ccc(NCc2nnc(SCC(=O)c3ccc(OC)cc3)n2C)cc1	4	-9	100	98
COC(=O)c1nn(-c2cccc(Cl)c2)cc(OC)c1=O	10	-6	102	103
Nc1nc2c(ccc3[nH]c(=O)c(=O)[nH]c32)s1	3	-9	97	98
CCn1cc(CC(=O)O)c2ccccc21	89	-67	101	105
Cc1ccc(-c2nc(N)sc2CC(=O)OCC(=O)N2CCOCC2)cc1	-11	10	99	103
CCOC(=O)C(CC)n1c(Br)nc2c1c(=O)[nH]c(=O)n2C (configuration not stated)	2	25	100	102
O=C(NCC(=O)N1CCOCC1)c1ccccc1	2	3	103	103
COC(=O)C1=C(C)OC(N)=C(C#N)C12C(=O)Nc1ccc(C)cc12 (configuration not stated)	0	11	103	105
CC(C)(C)C(=O)COC(=O)c1cc2ccccc2cc1O	-22	-13	106	101
O=C(/C=C/c1ccc(Br)o1)OCC(=O)c1cccc(C(F)(F)F)c1	0	.	103	99
N#C/C(=C/c1ccco1)c1ccc(Br)cc1	2	-51	102	106
Cc1cc(Cl)ccc1NC(=O)CSc1nnc(/N=C/N(C)C)s1	4	6	102	103
Cc1c(N=Nc2cnc(NC(=O)c3ccccc3)s2)c(=O)n(-c2ccccc2)n1C	1	-4	99	106
COc1cc(S(=O)(=O)N2CCC3(CC2)OCCO3)ccc1-n1cnnn1	-3	-1	102	103

From PubChem
